Compound activity (PubChem)
AID923 = qHTS Assay for Allosteric/Competitive Inhibitors of Caspase-1: Spectroscopic Profiling in AFC Spectral Region. compound fluorescence, AFC spectral region (405/520 nm); almost no hit is shown here. Potency, µM (highest dose often 57.5 µM), inactives show top-dose fluorescence increase, most hits filed as activators. 75,000 compounds, 1.1% hits; active = well fitted activation curve with a large enough effect; inconclusive = small, poorly fitted or top-dose-only effect;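 note: potency is the fitted concentration of half-maximal effect; 0% is about no effect; scaled to a free AFC standard on each plate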
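Titrations up to 57 uM read every 20 sec for 3 min (405/520 nm) with 50 nM caspase 1 and 5 uM Ac-WEHD-AFC, pH 7.5 HEPES buffer. Fluorescence-vs-time intercept gave baseline, scaled against on-plate AFC standard.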
A647 fluor = A647 region autofluorescence. 59,000 tested, under 10 active. Compound fluorescence, A647 channel (570/671 nm), Tris buffer. max dye-equivalent concentration, M; active means above 1 µM dye equivalent; inconclusive means 0.1 to 1 µM; inactive means 0.1 µM or less;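 note: values scaled relative to a standard on each plate; highest value over a series up to 38 µM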
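Compounds pinned into 100 mM Tris pH 8.0, 15 min at room temperature, then read with 570 nm excitation/671 nm emission filters. Fluorescence normalized to an on-plate six-point Alexa 647 standard curve, giving dye-equivalent concentration per compound concentration.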
Resorufin autofl = compound fluoresces in the resorufin spectral region | Compound fluorescence, resorufin region 547/598 nm, buffer; hits give high values | max dye-equivalent concentration, M | 59,000 compounds, 0.04% hits | AID 588; active = above 10 nM dye equivalent; inconclusive = 1 to 10 nM; inactive = 1 nM or less; a few of its hits are not listed in these tables; note: highest value over a series up to 38 µM
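Read-out: intrinsic compound fluorescence at ex 547/em 598 nm after 15 min at RT in pH 8.0 Tris (100 mM). Values expressed as resorufin-equivalent concentration from per-plate standard series.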
TSHR agonist = activates the human thyroid stimulating hormone receptor | Potency, µM (highest dose often 57.1 µM), for inactives: at the highest dose activation, usual class: activators | P16473 | HEK293-CNG-TSHR cells (CNG channel as cAMP sensor), membrane potential dye, cAMP | AID 926 | 73,000 compounds, 0.48% hits; active = well fitted activation curve of enough size with the parental cells flat; inconclusive = any curve in the parental cells; inactive = parental cells flat and receptor cells flat or falling; note: potency is the fitted concentration of half-maximal effect; % of control where 0% means no effect; weak receptor curves with flat parental cells got no call and are not listed
Target sequence (P16473 whole entry, looked up): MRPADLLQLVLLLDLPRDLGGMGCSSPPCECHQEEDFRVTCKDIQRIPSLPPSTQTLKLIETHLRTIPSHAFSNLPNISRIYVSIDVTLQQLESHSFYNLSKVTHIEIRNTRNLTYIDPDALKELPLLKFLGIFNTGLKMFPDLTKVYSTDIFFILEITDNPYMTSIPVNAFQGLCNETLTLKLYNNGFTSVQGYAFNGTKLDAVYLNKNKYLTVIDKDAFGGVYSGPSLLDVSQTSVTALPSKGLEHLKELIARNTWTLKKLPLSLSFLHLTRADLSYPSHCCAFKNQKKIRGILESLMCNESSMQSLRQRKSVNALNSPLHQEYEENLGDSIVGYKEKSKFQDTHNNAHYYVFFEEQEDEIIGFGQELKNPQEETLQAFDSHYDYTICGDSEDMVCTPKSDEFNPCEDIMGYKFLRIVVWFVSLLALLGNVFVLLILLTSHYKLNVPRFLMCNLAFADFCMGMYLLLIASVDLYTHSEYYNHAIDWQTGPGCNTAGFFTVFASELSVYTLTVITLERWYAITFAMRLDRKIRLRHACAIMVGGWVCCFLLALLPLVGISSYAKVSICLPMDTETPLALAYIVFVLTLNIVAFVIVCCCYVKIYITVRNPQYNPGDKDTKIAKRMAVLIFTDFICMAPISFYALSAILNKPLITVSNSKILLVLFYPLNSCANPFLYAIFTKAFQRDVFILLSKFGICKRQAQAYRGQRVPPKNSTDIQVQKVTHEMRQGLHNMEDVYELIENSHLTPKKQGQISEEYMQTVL
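HEK 293 cells stably expressing TSHR and a cAMP-gated CNG channel; parental CNG-only cells as counterscreen. Cells preloaded 60 min with membrane potential dye plus 100 uM RO 20-1724, then compound 30 min; fluorescence read at 590 nm.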
A488 autofl = compound autofluorescence in A488 spectral region. compound autofluorescence, A488 spectral region, dye equivalency; hits give high values. max dye equivalency, M. 59,000 compounds, 0.1% hits; active = above 10 nM dye equivalent; inconclusive = 1 to 10 nM; inactive = 1 nM or less; about half of its hits are not listed in these tables;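 note: highest value over a series up to 38 µM; compound alone in buffer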
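Spectroscopic profiling in the A488 region: compounds in pH 8.0 Tris (100 mM), 15 min RT, CCD imaging with 480 nm excitation and 540 nm emission; responses normalized against A488 dye standards.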
* hit, by the source's call; i = inactive; ? = inconclusive; . = no result given; [ ] = dose if it differs, or a comment. Not all compounds are listed; rates above refer to the full screens.

SMILES	AID923	A647 fluor	Resorufin autofl	TSHR agonist	A488 autofl
c1ccc(CCC2=NCCn3cccc32)cc1	14%	2.9e-08	i	0%[11.4 µM]	i
CCOc1ccccc1NC(=O)C1CC2CCCC(C1)C2=O (stereo not given)	0.0%	2.6e-08	i	-2%	i
COCC(=O)Nc1cccc(C(F)(F)F)c1	-0.5%	1e-08	i	5%	i
O=C(O)Cc1c[nH]c2ccc(F)cc12	6.6%[11.5 µM]	4.6e-08	i	.	i
O=C(CN(C(=O)Cn1nnc(-c2ccc(F)cc2)n1)C1CCCC1)NC1CCCC1	-1.1%	1e-09	i	5%	i
CCOC(=O)c1cnc(SCC(=O)Nc2ccc3c(c2)OCCO3)nc1N	-0.3%	2e-08	i	?	i
COCn1c(-c2ccccc2)nc2ccccc21	-0.6%	.	.	23%[11.4 µM]	.
CC(C)(C)OC(=O)N1CCN(c2ccc(NC(=O)Cn3nnc(-c4ccccc4)n3)cc2)CC1	-0.5%	7.8e-09	i	7%	i
COc1cccc(CNC(=O)c2nnn(CC(=O)Nc3ccc(C)c(C)c3)c2N)c1	0.4%	7.1e-09	i	-5%	i
Cc1ccc(-c2csc3nc(C)n(-n4c(C)ccc4C)c(=O)c23)o1	-2.8%	2.8e-09	i	16%	i

A run of entries from the list above, as a working copy:
SMILES	AID923	A647 fluor	Resorufin autofl	TSHR agonist	A488 autofl
c1ccc(CCC2=NCCn3cccc32)cc1	14%	2.9e-08	i	0%[11.4 µM]	i
CCOc1ccccc1NC(=O)C1CC2CCCC(C1)C2=O (stereo not given)	0.0%	2.6e-08	i	-2%	i
COCC(=O)Nc1cccc(C(F)(F)F)c1	-0.5%	1e-08	i	5%	i
O=C(O)Cc1c[nH]c2ccc(F)cc12	6.6%[11.5 µM]	4.6e-08	i	.	i
O=C(CN(C(=O)Cn1nnc(-c2ccc(F)cc2)n1)C1CCCC1)NC1CCCC1	-1.1%	1e-09	i	5%	i

The list goes on.
SMILES	AID923	A647 fluor	Resorufin autofl	TSHR agonist	A488 autofl
CCOCc1cnc(C)nc1NCC(=O)c1c(C)n(C)c2ccc(OC)cc12	-1.6%	1.7e-08	i	-1%	i
O=c1c2cccnc2[nH]c(=S)n1CCCN1CCN(c2ccc(F)cc2)CC1	0.3%	1.3e-09	i	?	i
CCSc1nc2n(n1)C(c1cccc(F)c1)C1=C(CCCC1=O)N2 (stereo not given)	1.6%	1e-09	i	-2%	i
O=C(Nc1ccon1)c1cc2c(s1)CCCC2	4.2%	2.6e-08	i	?	i
Cn1c(=O)c2c(nc(SCC(=O)N3CCc4ccccc4C3)n2C)n(C)c1=O	0.7%	4.8e-08	i	0%	i
Cc1cccc(Nc2nnc(SCc3cn4ccsc4n3)s2)c1	-1.0%	1e-09	i	23%	i
CCN1CCN(Cc2c(O)ccc3c(=O)c(-c4ccc(OC)c(OC)c4)c(C)oc23)CC1	0.3%	2.1e-08	i	2%	i
CC1CC(=O)N(CC(=O)NCc2ccc3c(c2)OCO3)c2ccccc2S1 (stereo not given)	0.5%	.	.	20%	.
CSCCC(N=Cc1c(O)n(-c2ccc(F)cc2)c(=O)[nH]c1=O)C(=O)O (stereo not given)	-1.2%	1e-09	i	3%	i
CC(C)CN1C(=O)NC(NC(=O)c2cccs2)(C(F)(F)F)C1=O (stereo not given)	-1.1%	1.9e-08	i	0%[11.4 µM]	i
Cc1noc2nc(-c3cccs3)cc(-c3nnc4n3CCCCC4)c12	4.4%	2.1e-08	i	-2%	i
CCN(CC)CCN1C(=O)C(=O)/C(=C(/O)c2ccc(Cl)cc2)C1c1ccncc1 (stereo not given)	.	1.2e-08	i	.	i
O=C(CNC(=O)c1cccs1)NCCN1CCN(Cc2ccccc2)CC1	-0.9%	2.2e-08	i	1%	i
C=CCn1cc(C(=O)NCc2ccco2)c(=O)c2cc(S(=O)(=O)N3CCCCCC3)ccc21	-1.3%	1.3e-09	i	?	i
Cc1c(-c2ccc(Cl)cc2)noc1C1CCN(CCc2ccccc2)CC1	-1.0%	.	.	?	.
COc1cc(NC(=O)c2cc(C(C)C)on2)cc(OC)c1OC	-3.4%	.	.	0%	.
C=CCSc1nnc(Cc2cc(=O)[nH]c(=O)[nH]2)n1-c1cc(C)ccc1C	2.4%	3.7e-08	i	-1%	i
O=C(Nc1ccccc1N1CCOCC1)c1ccc2c(c1)C(=O)N(Cc1ccncc1)C2=O	1.3%	2e-08	i	-20%	i
CCOC(=O)C(NC(=O)Nc1ncccn1)(Oc1ccccc1)C(F)(F)F (stereo not given)	0.1%	4.1e-08	i	1%	i
O=C(COc1ccc(F)cc1)Nc1nccs1	-3.1%	.	.	-8%	.
COc1ccc(S(=O)(=O)NC(C)C(=O)Nc2cccc(C(C)=O)c2)cc1 (stereo not given)	1.6%	1e-09	i	-17%	i
CCc1nc(N2CCN(c3nc(C)cc(C)n3)CC2)c2oc3ccccc3c2n1	1.4%	1.8e-09	i	?	i
COC(=O)c1ccnc(/C=N/O)c1	-0.8%	1.8e-08	i	-5%	i
COc1ccc(C(=O)C(CN2CCCC2)c2ccccc2)cc1 (stereo not given)	.	5.2e-08	i	.	i
CCOc1cc(C)nc(N2CCC(C(=O)Nc3ccccc3OCC)CC2)n1	0.0%	2.1e-08	i	?	i
CC(C)N(C(=O)COC(=O)c1ccccc1C(=O)N1CCN(c2ccc(F)cc2)CC1)C(C)C	-1.2%	1e-09	i	-1%	i
CN=C(N)/N=C(\N)Nc1cc2ccccc2c2ccccc12	0.9%[11.5 µM]	6.1e-09	i	1%[11.4 µM]	i
Cc1ccc(-c2c3c(=O)n(C)c(=O)n(C)c3c3nnc4ccccc4n23)cc1	-1.2%	9e-09	i	1%	?
Cc1ccn2cc(C(=O)NC3CCN(Cc4ccccc4)CC3)nc2c1	-2.1%	6.4e-08	i	-12%	i
Cc1cc(Nc2ncc(Cl)cc2Cl)n(-c2ccccn2)n1	-0.2%	4.4e-08	i	5%	i
O=C1C=C(NCc2ccco2)CC(c2ccc(Cl)cc2)C1 (stereo not given)	-1.0%	.	.	26%	.
Cc1cc(OC(=O)N2CCCCC2)cc(C)c1Cl	0.6%	1e-09	i	.	i
O=P(O)(O)C(O)C(F)(F)C(F)(F)C(F)(F)C(F)F (stereo not given)	0.8%	1e-08	i	?	i
Cc1ccc(-c2ccccc2NC(=O)C2C3C=CC(C3)C2C(=O)O)o1 (stereo not given)	.	1.9e-09	i	.	i
O=C(Oc1cccnc1)c1ccco1	.	1.6e-09	i	.	i
N#CC1=C(N)OC2=C(C(=O)CCC2)C1CCc1ccccc1 (stereo not given)	.	1e-09	i	.	i
O=C(CSc1nc2ccccc2c(=O)n1CCC(=O)N1CCCCC1)NCc1ccccc1	0.2%	2.1e-08	i	7%	i
CCc1cc(C(N)=S)ccn1	0.2%	4.3e-09	i	-3%	i
CCCc1cc(=O)oc2cc(C)cc(OC(=O)c3ccco3)c12	-0.7%	.	.	11%[11.4 µM]	.
CC(C)(C)CC(=O)Nc1nnc(-c2cccs2)s1	-0.4%	2.1e-09	i	3%	i
O=c1[nH]c(CSc2nnc(NCCCN3CCOCC3)s2)nc2cc(Cl)ccc12	1.1%	2.7e-09	i	4%	i
CCOC(=O)C1CCN(C(=O)c2n[nH]c(=O)c3ccccc23)CC1	0.6%	1e-09	i	-2%	i
CCOc1cc2oc(=O)c3c(c2cc1Cl)CCC3	-0.9%	4.5e-08	i	1%	i
CN(C)c1ncnc2ccc(-c3ccccc3C#N)cc12	-3.8%	4.2e-09	i	5%	i
O=S(=O)(NCCc1csc(-c2cccnc2)n1)c1ccc2c(c1)OCCO2	5.4%	.	.	?	.
COc1cc(OC)c(NC(=O)c2c(-c3ccccc3)noc2C)cc1Cl	-3.3%	1.4e-08	i	28%	i
Cc1cc(NC(=O)C2CCN(S(=O)(=O)Cc3ccccc3)CC2)ccc1-n1cnnn1	-0.1%	2e-09	i	6%	i
COc1ccccc1-c1nc(-c2ccc(C)nc2OC)no1	0.0%	3.8e-08	i	-4%	i
Cc1ccc(N(CC(=O)NCc2ccc3c(c2)OCO3)S(=O)(=O)c2c(C)noc2C)cc1	0.8%	.	.	?	.
Cc1ccc(C)c(OCCCC(=O)Nc2ccc(N3CCOCC3)cc2)c1	1.7%	1e-09	i	5%	i
(next part)
SMILES	AID923	A647 fluor	Resorufin autofl	TSHR agonist	A488 autofl
C=C(N(C)C)[C@]1(C)C[C@H]1[C@H](NC(=O)CNC(=O)OCc1ccccc1)c1ccccc1	-0.1%	.	.	?	.
C[C@H](NC(=O)Nc1ccccc1F)C(=O)O	0.4%	4.1e-08	i	2%	i
CCOC(=O)/C(C#N)=C1/C=CN(c2ccccc2)C=N1	16%	.	.	6%	.
CCc1n[nH]c2c1/C(=N\O)CC(C)(C)C2	-0.6%	.	.	?	.
N#CC1=C(N)Oc2c(oc(CO)cc2=O)C12C(=O)Nc1ccc(Cl)cc12 (stereo not given)	1.1%	3.4e-08	i	-6%	i
CC(C)Sc1nc(N2CCCC2)c2c(c1C#N)CC(C)(C)OC2	.	1.2e-09	i	.	i
Cc1cc(C)cc(NC(=O)C2CCCN(c3nccc(C)n3)C2)c1 (stereo not given)	-0.5%	1.4e-08	i	?	i
O=C(Nc1ccc(Cl)c(Cl)c1)N1CC=CCC1	1.6%	.	.	?	.
COc1ccc(NC(=O)CSc2[nH]c(=O)cc(C)c2C#N)cc1OC	0.4%	1.8e-08	i	25%	i
Cc1nc(SCC#N)c2c3c(sc2n1)CCC3	0.4%	3.4e-09	i	?	i

Taken from above:
Value of CC(C)N(C(=O)COC(=O)c1ccccc1C(=O)N1CCN(c2ccc(F)cc2)CC1)C(C)C under AID923: -1.2%
Value of O=C(Oc1cccnc1)c1ccco1 under A647 fluor: 1.6e-09
Value of Cc1c(-c2ccc(Cl)cc2)noc1C1CCN(CCc2ccccc2)CC1 under AID923: -1.0%
Value of O=C(CNC(=O)c1cccs1)NCCN1CCN(Cc2ccccc2)CC1 under AID923: -0.9%

Remaining list, next part:
SMILES	AID923	A647 fluor	Resorufin autofl	TSHR agonist	A488 autofl
S=C1SCN(CCN2CCOCC2)CN1Cc1ccccc1	2.3%	3.9e-09	i	6%	i
COc1ccc(C)cc1S(=O)(=O)N1CCN(S(=O)(=O)c2cc(C)ccc2OC)C(C)C1 (stereo not given)	-1.7%	.	.	?	.
Cc1cc(C(=O)CN2C(=O)NC(c3ccccc3)(c3ccccc3)C2=O)c(C)n1Cc1ccco1	2.5%	1e-09	i	9%	i
c1ncc(-c2ccc3c(c2)OCO3)c(NCCc2cnc[nH]2)n1	0.5%	5.6e-09	i	1%	i
Cc1cc(C(=O)Nc2nc3c(s2)CCCC3)cs1	5.5%	.	.	7%	.
Cc1cc(C)nc(/N=C2/NC(=O)CS2)n1	0.4%	8.8e-09	i	-2%	i
C/C(=N\O)C(=O)NCCCn1ccnc1	.	2.9e-08	i	.	i
CC(C)CCn1c(CN2CCN(Cc3ccccc3)CC2)nc2c1c(=O)[nH]c(=O)n2C	1.8%	4e-08	i	7%	i
CCC1(N(C(C)=O)c2ccc(OC)cc2)C(=O)c2ccccc2C1=O	-0.8%	.	.	5%	.
CC1(C(=O)NCc2ccccn2)C=CCN1C(=O)c1ccccc1 (stereo not given)	-0.4%	.	.	3%	.
CCOC(=O)c1nc(-c2ccccc2)oc1N(C)C	-0.4%	3.4e-09	i	5%	i
Cc1cc(OCCOCCN2CCCC2)ccc1C(C)C	-0.4%	.	.	3%	.
Cc1cc(C)nc(SCc2cccc(C(=O)O)c2)n1	-0.2%	1e-09	i	6%	i
CCOC(=O)C1CCCCN1C(=O)CCc1c(C)nc2cc(-c3ccccc3)nn2c1C (stereo not given)	0.9%	.	.	-1%	.

Profiles from above. Order of screens: AID923, A647 fluor, Resorufin autofl, TSHR agonist, A488 autofl
Cc1cc(C)nc(SCc2cccc(C(=O)O)c2)n1 is listed with -0.2%, 1e-09, i, 6%, i
CCOC(=O)C1CCCCN1C(=O)CCc1c(C)nc2cc(-c3ccccc3)nn2c1C (stereo not given) is listed with 0.9%, ., ., -1%, .
